# LT uptake inh: anthrax lethal toxin internalization inhibition. Potency, µM (highest dose often 40 µM), inactives show at the top dose activity change, negative = inhibition, actives largely listed as inhibitors. AID 912. 70,000 tested, 0.67% active. Cells, anthrax lethal toxin internalization, FRET ratio (460/530); active = well fitted falling ratio curve with the 530 nm signal flat; inconclusive = other ratio curves, or a change in one channel alone; inactive = flat curves in the ratio and both channels; the % refers to the ratio; note: % is set by controls: 0 for no effect and ±100 for the full control effect; nearly all actives have a fitted effect of over 50% in size; tested in ME-180 cells; beta-lactamase reporter
# SmPrx2 inh: blocks S. mansoni peroxiredoxin 2 enzymatic activity. S. mansoni Prx2 activity coupled to TGR/GSH (TGR is thioredoxin glutathione reductase), NADPH fluorescence loss, qHTS; some inactives read as strong as hits. 65,000 tested, 0.07% active. Potency, µM; active means full or partial inhibition curve with a strong effect at the top dose; inconclusive means weaker partial or single-point curve; inactive means no accepted curve; note: series up to 57 µM; many of its hits are not listed in these tables
#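 Coupled assay in which S. mansoni TGR passes NADPH reducing equivalents via glutathione to Prx2, which reduces H2O2. Compounds were preincubated 15 min at room temperature with 25 nM TGR/50 nM Prx2 mix. Kinetic NADPH fluorescence loss (ex 365/em 450 nm) was monitored.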
# * hit, by the source's call; u = inconclusive; x = no result given; & = joins results of further samples; [ ] = dose if it differs, or a comment. Potency is the fitted concentration of half-maximal effect. A portion of the library (hit frequency here may not be typical).
SMILES,LT uptake inh,SmPrx2 inh
CCCOC(=O)c1[nH]c2c(c1C)C(=O)CC(c1ccc(OC)c(OC)c1)C2 (stereo not given),-3.1%,>57
COc1ccccc1C1C(C#N)=C(N)Oc2cc(C)n(CCCn3ccnc3)c(=O)c21 (stereo not given),-15.5%,>57
CCOC(=O)Cc1[nH]nc2c1C(c1ccoc1)C(C#N)=C(N)O2 (stereo not given),3.1%,>57
CCOC(=O)C1CCN(S(=O)(=O)c2cc(Cl)c(C)cc2OC)CC1,4.1%,>57
Cc1cc(C)cc(Oc2ccc(N)cc2)c1,8.1%,>57
CC(=O)Oc1cccc(N2C(=O)c3ccc(C(=O)O)cc3C2=O)c1,-6.7%,x
COC(=O)CNC(=O)C1(C)C=CCN1C(=O)c1ccccc1 (stereo not given),17.9%,x
O=C(NCc1cccnc1)c1cc(-c2cccs2)on1,2.7%,>57
CN(C)c1ccc(N/C=C/C(=O)c2ccccc2)cc1,-15.5%,x
Cc1ccc(-c2cc(C(=O)OCC(=O)Nc3cc(C)on3)c3ccccc3n2)c(C)c1,-10.0%,>57
COc1ccc(-c2cc(C(=O)NC(C(=O)O)C(C)C)c(C)o2)cc1OC (stereo not given),5.7%,>57
Cc1c(NC(=O)CN2C(=O)c3cccc4cccc2c34)c(=O)n(-c2ccccc2)n1C,22.9%,>57
CCOC(=O)c1ccc2[nH]c(C)c(CCC(C)=O)c(=O)c2c1,-1.7%,x
O=S(=O)(c1ccc2c(c1)OCCO2)N1CCC(n2nnc3cc(F)ccc32)CC1,u,>57
COc1ccc(NC(=O)CSc2nnc(-c3ccccc3Cl)n2Cc2ccco2)c(OC)c1,x,>57

# Entries above with a COOH group (two):
SMILES,LT uptake inh,SmPrx2 inh
CC(=O)Oc1cccc(N2C(=O)c3ccc(C(=O)O)cc3C2=O)c1,-6.7%,x
COc1ccc(-c2cc(C(=O)NC(C(=O)O)C(C)C)c(C)o2)cc1OC (stereo not given),5.7%,>57

# (further entries)
SMILES,LT uptake inh,SmPrx2 inh
O=C(O)c1ccccc1NS(=O)(=O)c1cccc2cccnc12,-9.5%,>57
O=C(NC1=NCCS1)C12CC3CC(C1)CC(C(=O)NC1=NCCS1)(C3)C2,12.3%,>57
COc1cccc(-n2c(Cc3cc(=O)[nH]c(=O)[nH]3)nnc2SCC(=O)NC2CCCC2)c1,u,>57
O=C(O)c1ccc(CN2C(=O)c3ccccc3S2(=O)=O)cc1,16.7%,>57
Cc1cc2ccccc2n1CCNC(=O)C(C)(C)C,1.6%,>57
COC(=O)Nc1sc2c(c1C(=O)N1CCOCC1)CCC(C)C2 (stereo not given),2.1%,>57
c1ccc2c(c1)CCCn1nnnc1-2,19.1%,>57
Cc1cc(NC(=O)CSc2nnc(CNc3cccc(C(F)(F)F)c3)n2Cc2ccco2)no1,-0.1%,>57
COc1cccc(C(=O)Oc2cc(N)n(S(=O)(=O)c3ccc(C)cc3)n2)c1OC,-20.0%,>57
O=C1CN(/N=C/c2ccc([N+](=O)[O-])o2)C(=O)N1,u,x
O=C(c1nc2ccccc2s1)N1CCSCC1,-4.5%,>57
COc1nonc1NCn1nc(C)cc1C,0.0%,>57
O=C(NC1CCN(C(=O)Nc2cccc(F)c2)CC1)C1CCCCC1,-3.7%,>57
Cc1ccc(S(=O)(=O)N2CCN(C(=O)COc3ccc(-c4nnco4)cc3)CC2)cc1,9.1%,>57
O=C1c2ccccc2-c2n[nH]c3cccc1c23,u,>25.6&>57
CC(NC(=O)C(CC(=O)OC(C)(C)C)NC(=O)OC(C)(C)C)C(N)=O (stereo not given),-3.3%,>57
CSCCC1(C(=O)O)NC(c2ccccc2O)C2C(=O)N(C(C)C)C(=O)C21 (stereo not given),2.2%,>57
CS(=O)(=O)N(CC(=O)N1CCN(c2ccccc2)CC1)c1cccc(Br)c1,-19.5%,x
Fc1cccc(F)c1CN1CCN(c2ncccn2)CC1,-13.2%,>57
COc1ccccc1-n1c(-c2ccoc2)nc2ccccc2c1=O,10.4%,>57
O=S(=O)(c1ccccc1Cl)N1CCCC(c2nc(-c3cccnc3)no2)C1 (stereo not given),-8.6%,>57
COc1ccc(Cl)cc1NC(=O)CN1CCC(n2nnc3cc(F)ccc32)CC1,-3.7%,>57
COc1ccc(NC(=O)N2CC3(CCN(C(=O)c4ccc(OC)cc4)CC3)C2)cc1,18.0%,>57
CCOCCCNC(=O)CN1C2CCC1CC(O)(c1ccc(OC)cc1)C2 (stereo not given),-5.1%,>57
CC(C)CN(C(=O)COC(=O)Cc1c[nH]c2ccccc12)C1CCS(=O)(=O)C1 (stereo not given),-3.2%,>57
O=C(O)CCC(=O)c1ccc2sc3ccccc3c2c1,-3.6%[8 µM],>57
Cc1cc(-n2c(C)cc(C(=O)COC(=O)CN=C3NS(=O)(=O)c4ccccc43)c2C)no1,-1.5%,>57
CN(CCNC(=O)C1CCN(S(=O)(=O)N2CCOCC2)CC1)CCc1ccccc1,12.7%,>57
Cc1ccc(C)n1-n1cnc2sc(-c3ccccc3)cc2c1=O,-28.3%,>57
O=C(c1ccco1)N1CCC2(CC1)CN(c1ncccn1)C2,u,>57

# Profiles as entered above. Screens in order: LT uptake inh, SmPrx2 inh
# `COc1nonc1NCn1nc(C)cc1C` is entered as 0.0%, >57
# `CC(C)CN(C(=O)COC(=O)Cc1c[nH]c2ccccc12)C1CCS(=O)(=O)C1` (stereo not given) is entered as -3.2%, >57
# `COc1ccccc1C1C(C#N)=C(N)Oc2cc(C)n(CCCn3ccnc3)c(=O)c21` (stereo not given) is entered as -15.5%, >57
# `COc1ccc(Cl)cc1NC(=O)CN1CCC(n2nnc3cc(F)ccc32)CC1` is entered as -3.7%, >57
# `Cc1cc(NC(=O)CSc2nnc(CNc3cccc(C(F)(F)F)c3)n2Cc2ccco2)no1` is entered as -0.1%, >57

# Some of these compounds in order of heavy-atom count, low to high.
SMILES,LT uptake inh,SmPrx2 inh
c1ccc2c(c1)CCCn1nnnc1-2,19.1%,>57
O=C(O)c1ccccc1NS(=O)(=O)c1cccc2cccnc12,-9.5%,>57
COc1ccc(NC(=O)CSc2nnc(-c3ccccc3Cl)n2Cc2ccco2)c(OC)c1,x,>57

# Later entries:
SMILES,LT uptake inh,SmPrx2 inh
CC(=O)Nc1ccc(NC(=O)c2cccc(C(=O)OC(C)C)n2)cc1,11.8%,>57
Cc1ccc(OCc2nnc(SCC(=O)NCc3ccccc3)n2C)cc1,-4.3%,x
CN(Cc1ccc(O)cc1)C1CCCCC1,-22.2%,x
Cc1oc(CSCC2CCCO2)cc1C(=O)O (stereo not given),15.5%,>57
COc1cc(OC)cc(C(=O)N2CCN=C2SCc2cccnc2)c1,13.2%,>57
COc1ccc(S(=O)(=O)n2nc(OC(=O)c3ccccc3)cc2N)cc1,-11.6%,>57
O=C(Nc1nc(-c2ccccc2)cs1)c1cccs1,10µM*,x
CCOC(=O)c1c(NC(=O)c2ccn(CC)n2)sc2c1CCCC2,-18.2%,>57
COC(=O)c1nc2n(n1)C(c1ccccc1OC)C1=C(CCCC1=O)N2 (stereo not given),2.3%,>57
COc1cc2cc(C(c3nnnn3C3CCCC3)N3CCCCCC3)c(=O)[nH]c2cc1OC (stereo not given),-4.5%,>57
COC(=O)C/C=C\[C@@H](C)[C@@H](/C=N\O[C@@H](C)c1cn([C@H]2COC[C@H]2O)nn1)NS(=O)(=O)c1ccc(C)cc1,-3.9%[8 µM],x
Nc1nnc(N2CCCCCC2)s1,-5.2%,>57
Cc1cc2nnc(SCC(=O)NCc3ccco3)n2c2ccccc12,4.3%,>57
COCCn1c(C)cc(C(=O)CSc2nc3ccccc3c(=O)[nH]2)c1C,u,>57
Cc1ccc2c(c1[N+](=O)[O-])C(=O)c1ccccc1C2=O,7.7%,x
Cc1cccc(NC(=O)c2cc3n(n2)C(C(F)(F)F)CC(c2ccc4c(c2)OCO4)N3)c1 (stereo not given),u,>57
COc1ccc(/C(O)=C2\C(=O)C(=O)N(CCCN(C)C)C2c2ccccc2F)cc1Cl (stereo not given),8.9%,>57
CCCN1C[C@H](C)N([C@H](c2ccc(C(=O)N(CC)CC)cc2)c2cccc(OC)c2)C[C@H]1C,u,>57
Cc1cc(=O)n2nc(N3CCCC(C(=O)N4CCc5ccccc54)C3)sc2n1 (stereo not given),-11.2%,>57
COc1ccc(-c2cc(-c3ccccc3)nc(N3CCCC3)n2)cc1OC,u,x
Cc1nn(Cc2ccccc2)c2sc(C(=O)NCc3cccnc3)cc12,-16.4%,>57
COc1ccc(S(=O)(=O)N(CC(=O)Nc2ccc3c(c2)OCO3)c2ccccc2OC)cc1,u,x
COc1cc([C@@H](O)CN)ccc1O,4.6%,>57
CCOc1cc(-c2c(C#N)c(=O)[nH]c3c2c(C)nn3-c2ccc(F)cc2)ccc1O,x,>57
CCS(=O)(=O)N1CCCC(C(=O)NCCCOC)C1 (stereo not given),-15.5%,>57
CCOC(=O)CSc1nnc(NCC(=O)OC(C)C)c(=O)[nH]1,17.0%,>57
CCCOP(=O)(c1ccc(N(C)C)cc1)C(O)c1ccncc1 (stereo not given),-2.2%,>57
COC(=O)CCCCCN1C(=O)NC(c2ccccc2)C(C(=O)OCc2ccccc2)=C1C (stereo not given),-5.8%,x
Cc1cc(C(=O)Oc2ccccc2C(=O)O)c(C)o1,-3.1%,>57
CCn1cc(C(=O)NCc2ccc(C)o2)c2cc(OC)c(OC)cc2c1=O,8.5%,>57
CCCC(=O)N1CCN(c2ccc(NC(=O)c3ccco3)cc2)CC1,10.4%,>57
COc1ccc(NC(=O)CNS(=O)(=O)c2ccccc2)cc1Cl,-5.8%,>57
CCC(=O)c1ccc(OCCSc2ncccn2)cc1,-7.3%,>57
CSC1=NCCN1C(=O)COc1ccccc1,-5.3%,>57
COc1ccc(C2CC(=O)C=C(NCC3CCCO3)C2)cc1 (stereo not given),-7.5%,x
C1=CC2CC1CC2CNCc1ccco1 (stereo not given),-2.2%,>57
CCOC(=O)C1CCCN(C(=O)c2ccccc2NC(C)=O)C1 (stereo not given),11.3%,>57
Cn1c(N)c(N=Nc2ccc(S(N)(=O)=O)cc2)c(=O)n(C)c1=O,8.4%[8 µM],>57
O=c1[nH]c(-c2ccccc2O)nc2c1CCCC2,-9.0%,>57
O=[N+]([O-])c1ccc(Cl)c(Cl)c1,u,x
COc1ccccc1-c1nc(C#N)c(NCc2ccc(F)cc2)o1,5.8%,>57
CCOc1cccc(C(=O)Nc2cc(-c3nn4c(C)nnc4s3)ccc2C)c1,-23.8%,>57
Cc1ccc(-c2nnc(SCC(=O)N3CCCC3)o2)cc1C,-9.2%,>57
O=C(Nc1cccc(-c2nnc(-c3ccccc3)o2)c1)c1ccc(Br)o1,10µM*,u
Cn1c(=O)c2ncn(CC(=O)NCCC3=CCCCC3)c2n(C)c1=O,x,>57
CCOc1ccc(C(=O)C2CCN(CC(=O)Nc3ccccc3N3CCOCC3)CC2)cc1,-23.6%,>57
CCCC(c1nnnn1CCOC)N1CCN(c2cccc(OC)c2)CC1 (stereo not given),u,>57
C=CCn1c(=N)c(C(=O)OC)cc2c(=O)n3cccc(C)c3nc21,7.1%,>57
O=C(c1ccncc1)N(Cc1cc2ccccc2[nH]c1=O)C1CCCCC1,1.7%,>57
CC(C)Nc1nnc(SCC(=O)Nc2ccc(F)cc2)s1,0.2%,>57
CCCC(C)C(=O)NC1CCSC1=O (stereo not given),-2.1%,>57
N#CC1=C2SCN(c3ccccc3)CN2C(=O)CC1c1c(Cl)cccc1Cl (stereo not given),u,x
NC(=O)OCC(COC(N)=O)c1ccccc1,-8.3%&-1.0%,>57&>57
CC1CCCCC1NC(=O)C1Cc2ccccc2CN1S(C)(=O)=O (stereo not given),7.0%,>57
CC(C)c1nnc(SCc2ccc(CSc3nnc(C(C)C)n3N)cc2)n1N,8.6%,>57
CSCC[C@H](NC(=O)Nc1ccc(C)cc1)C(=O)O,x,>57
Cn1c(C(=O)NCC2CCCO2)cc2c(=O)n3ccccc3nc21 (stereo not given),7.3%,>57
CCC1SC2=NCN(c3ccccc3)CN2C1=O (stereo not given),3.3%,>57
COc1cc(NC(=O)c2ccc(-c3ccc(Br)cc3)o2)ccc1NC(=O)C(C)C,-0.4%,>57
COc1ccc(NC(=O)CN(c2cc(C)cc(C)c2)S(=O)(=O)c2c(C)noc2C)cc1OC,-28.2%,>57

# The results go on.
SMILES,LT uptake inh,SmPrx2 inh
c1nc2nc3c(c(N4CCOCC4)n2n1)CCCC3,-4.5%,>57
COc1ccc(NC(=O)CSc2nnc(Cc3cccn3C)n2-c2ccc(F)cc2)cc1,-6.6%,>57
CCOC(=O)Cn1ncc(-c2ccccc2)c1N,-5.7%,>57
COc1cc2c(cc1OC)CN(C(=O)CSc1n[nH]c(N)n1)CC2,3.4%,>57
Cc1cc(NC(=O)c2noc3c2CCCC3)n(-c2ccccc2)n1,u,>57
Cn1nc(C(=O)NCCN2CCOCC2)c2ccccc2c1=O,-14.4%,>57
CC(C)Nc1nc(NC(C)C)nc(C(N)=O)n1,2.0%,>57
Cc1ccccc1-c1nc(NCCN2CCOCC2)c2ccccc2n1,9.9%,>57
O=C(Nc1nc2ccccc2s1)C1CCCN1S(=O)(=O)c1ccc(Cl)cc1 (stereo not given),u,>57

# Assay outcomes: PubChem BioAssay, National Center for Advancing Translational Sciences (NCATS)
